# Menin-MLL FL inh = menin-MLL binding inhibition, fluorescein peptide. 290,000 tested, under 10 active. FP activity change, % at 61.4 µM. AID 1766. Fluorescence polarization, fluorescein-MLL peptide displacement from menin; inconclusive = falling polarisation curve, or a change in total fluorescence; inactive = total fluorescence flat and polarisation flat or rising; no compound was filed as active; the % refers to the polarisation; negative = inhibition;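 note: % of control where 0% means no effect; inhibitors lower the polarisation; unlabelled MLL peptide was the positive control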
# TRPML1 inh = blocks the human TRPML1 channel. 390,000 compounds, 0.02% hits. TRPML1-inducible cells, Ca2+ dye fluorescence, FDSS; active compounds read low; inhibition of EC80 agonist-evoked calcium signal. Q9GZU1. activity change, negative = inhibition, % (no concentration beside the values); in the data active means activity change below about -50%; inconclusive means about -30% to -50%; inactive means above about -30%;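 note: stimulus is agonist 54-4 at its EC80 concentration; % is set by controls: 0 for no effect and ±100 for the full control effect; compound concentration not given in the record; the text of the record puts the active cut at -80%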
#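 TRPML1-DL cells, Tet-induced overnight (~16 h, 37 °C) at 1,500 cells/well, were loaded with Ca8 no-wash dye plus quencher for 45-90 min at room temperature. Compounds were pinned during FDSS kinetic reading; agonist 54-4 at EC80 (4 uM final) then added.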
# PINK1 modulator = modulators of PINK1 expression; 410,000 compounds, 0.2% hits; Potency, µM (top dose mostly 76.6 µM), for the others: at the highest dose activation (PINK1 increase), actives largely listed as activators; PINK1 immunofluorescence, high-content cytometry, 24 h; active = well fitted activation curve with a large enough effect; inconclusive = small, poorly fitted or top-dose-only effect; inactive = flat fitted curve, though single readings scatter; cell line not stated here;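 note: potency is the fitted concentration of half-maximal effect; % of control where 0% means no effect; nearly all actives have a fitted effect of over 65% in size; a mitochondrial uncoupler was the plate control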
#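 Decision-based qHTS: stable cells, 24 h exposure to five compound concentrations, CCCP as control. Fixed cells stained for PINK1 plus nuclear, mitochondrial and cell markers, cytometer read.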
# ClpP mod = qHTS Assay for Activators of ClpP | ATP-dependent Clp protease proteolytic subunit (Bacillus subtilis (strain 168)), P80244 | purified B. subtilis ClpP, FRET peptide cleavage, 20 min | Potency, µM (series often up to 57.5 µM), for the others: at the top dose activity change, negative = active | 340,000 compounds, 1.9% hits; active = well fitted falling curve with a large enough effect; inconclusive = small, poorly fitted or top-dose-only effect; inactive = no such curve, though single readings can be large or run the other way; note: potency is the fitted concentration of half-maximal effect; the source files actives as falling curves though it sought activators and does not explain the sign; nearly all actives have a fitted effect of over 65% in size; many hits overshoot -100%
# Target sequence (P80244 whole entry, looked up): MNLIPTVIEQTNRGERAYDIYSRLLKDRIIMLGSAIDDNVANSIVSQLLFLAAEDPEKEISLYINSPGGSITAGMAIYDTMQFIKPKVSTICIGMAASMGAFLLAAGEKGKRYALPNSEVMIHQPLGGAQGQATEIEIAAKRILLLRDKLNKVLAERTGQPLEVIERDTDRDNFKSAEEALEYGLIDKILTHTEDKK
#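 Buffer: 100 mM Tris/HCl pH8, 100 mM KCl, 0.05% low protease BSA, 2.5% glycerol, 0.01% Tween-20. ClpP 10 microg/mL final; 20 min RT; delta FRET normalized to ADEP and DMSO controls.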
# Sfp PPTase inh = blocks B. subtilis Sfp PPTase activity. Q9F4F7. Biochemical Sfp PPTase activity, qHTS. Potency, µM, without a hit: max response, negative = inhibition, usual class: inhibitors. 310,000 compounds, 3.5% hits. AID 1490; active = well fitted inhibition curve with a large enough effect; inconclusive = small, poorly fitted or top-dose-only effect, or another doubt; inactive = no such curve, though single readings can be large or run the other way;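 note: the enzyme is Sfp with the accession as filed and its product quenches rhodamine fluorescence; potency is the fitted concentration of half-maximal effect; 0% = enzyme reaction without inhibitor and -100% = no enzyme wells; top concentration of the series not given in the record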
#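 Fluorescence-quenching assay with 15 nM Sfp, 5 uM rhodamine-CoA and 12.5 uM BHQ-2-labelled ybbR peptide in pH 7.6 Hepes/MgCl2 buffer. Enzyme was pre-incubated with compound for 15 min at room temperature. Rate was taken from the 30-min fluorescence change (525/598 nm).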
# TRPML1 agonist = human mucolipin-1 channel agonism; TRPML1-expressing cells, Ca2+ dye fluorescence, FDSS; host cell line not named in the record; reference of the full effect not given here; activation, % (no concentration beside the values); 410,000 compounds, 0.12% hits; AID 624414; in the data active = activation above about 50%; inconclusive = about 30% to 50%; inactive = below about 30%; note: 0% is about no effect; the text of the record puts the active cut at 80%
#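 TRPML1-DL cells, Tet-induced overnight (~16 h, 37 degrees C), loaded 45-90 min at room temperature with Ca8 no-wash calcium dye plus quencher. FDSS fluorescence: 10 s baseline, compound pin-transfer, 110 s agonist read, then EC80 54-4 (4uM final) and 110 s antagonist read.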
# TRPV1 PAM = human TRPV1 potentiation | Q8NER1 | TRPV1-expressing cells, Fluo-8 calcium influx, capsaicin EC20 potentiation; host cell line not named in the record; control for the full effect not named in the record | potentiation, % at 8.33 µM | 320,000 compounds, 0.02% hits; active means potentiation above 80%; inconclusive means 30% to 80%; inactive means below 30%; note: 0% is about no effect
# Target sequence (Q8NER1 whole entry, looked up): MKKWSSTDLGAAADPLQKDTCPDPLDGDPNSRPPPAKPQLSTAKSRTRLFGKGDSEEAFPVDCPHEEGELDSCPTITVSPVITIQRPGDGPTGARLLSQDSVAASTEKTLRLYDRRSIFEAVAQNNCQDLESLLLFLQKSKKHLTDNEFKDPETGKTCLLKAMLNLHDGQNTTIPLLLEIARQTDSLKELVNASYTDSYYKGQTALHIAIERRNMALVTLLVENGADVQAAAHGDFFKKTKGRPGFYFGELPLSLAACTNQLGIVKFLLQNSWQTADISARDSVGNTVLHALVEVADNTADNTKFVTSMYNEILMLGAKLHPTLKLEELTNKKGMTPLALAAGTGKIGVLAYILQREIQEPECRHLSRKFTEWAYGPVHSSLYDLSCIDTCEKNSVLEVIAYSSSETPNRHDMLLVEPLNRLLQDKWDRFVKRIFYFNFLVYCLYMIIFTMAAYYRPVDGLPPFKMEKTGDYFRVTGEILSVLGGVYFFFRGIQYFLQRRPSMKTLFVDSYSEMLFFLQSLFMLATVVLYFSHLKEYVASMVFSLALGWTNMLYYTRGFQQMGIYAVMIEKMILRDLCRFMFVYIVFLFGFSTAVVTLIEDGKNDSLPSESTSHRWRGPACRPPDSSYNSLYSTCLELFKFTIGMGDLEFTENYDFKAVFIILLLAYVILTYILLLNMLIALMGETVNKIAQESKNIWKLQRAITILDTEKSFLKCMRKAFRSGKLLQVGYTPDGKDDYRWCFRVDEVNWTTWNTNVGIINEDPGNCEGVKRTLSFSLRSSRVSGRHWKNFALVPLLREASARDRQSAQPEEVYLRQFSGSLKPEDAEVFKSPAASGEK
#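 TRPV1-expressing cells were cultured overnight at 35.5C and loaded with Fluo-8 calcium dye for 40 to 90 min at room temperature. After a 10 s baseline, compound was added and calcium influx was read kinetically for 3 min (ex 480/em 520 nm).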
# * = called active by the depositor; u = inconclusive; x = not tested or not shown; & = joins results of further samples; [ ] = remark or other dose.
molecule,Menin-MLL FL inh,TRPML1 inh,PINK1 modulator,ClpP mod,Sfp PPTase inh,TRPML1 agonist,TRPV1 PAM
CCOC(=O)c1c(NC(=O)CC(C)C)sc(C(C)=O)c1C,6.9,0,-2.3%,-0.2%,13%,0.3,1
Cc1cc(C)c2c3c(sc2n1)C(=O)N(C)CC(=O)N3,0.6,26,-2.2%[38.3 µM],-1.6%,1%,1.0,-1
Cc1c(C=Nc2ccc(S(=O)(=O)N(C)C)cc2)c(O)[nH]c(=O)c1C#N,x,-1,12%,-0.2%,x,-0.3,x
COCCn1c(SCc2ccc(F)cc2)nc2c1c(=O)[nH]c(=O)n2C,1.8,-16,1.3%,-1.9%,45µM*,-0.2,-13
CN(C)S(=O)(=O)c1cccc(NC(=O)CCCc2nc3ccccc3c(=O)[nH]2)c1,x,-20,1.1%,-2.1%,x,-0.5,5
Cc1cc(C)cc(-n2c(C)cc(/C=N/NC(=O)CN(c3c(C)cccc3C)S(C)(=O)=O)c2C)c1,0.3,-6,4.3%,-12%,3%,0.9,6
CN1CCN(c2ccnc(-c3ccc(N(C)C)cc3)n2)CC1,-1.4,x,-1.1%,x,21%,x,x
COc1cc(CN2CCCCCC2)c([N+](=O)[O-])cc1OC,-1.5,25,-1.9%,-4.4%,63µM*,0.8,-1
CCCOc1ccc(NC(=O)C2CCCNC2=O)cc1 (centres undefined),6.6,9,0.0%,2.0%,8%,-0.8,7
Cc1ccc(Cn2c(C3CCCN3c3nc(C)cs3)nc3cc(C(F)(F)F)ccc32)cc1 (centres undefined),3.9,46,u,2.1%,-6%,-0.2,-8
COc1ccc(CCNC(=O)CCc2cn(Cc3ccc(F)cc3)c3ccccc23)cc1OC,x,26,0.6%,-13%,x,3.4,x
COc1ccc(OC)c(-n2nnnc2SCC(=O)NCc2ccc3c(c2)OCO3)c1,1.3,32,-2.4%[38.3 µM],-3.1%,14%,2.9,-2
Cc1cccc(Cn2nc(C)cc2NC(=O)CCCn2ccc([N+](=O)[O-])n2)c1,3.1,1,-1.0%,x,16%,-0.2,-8
Cn1ncc(C#N)c1NC(=O)C1CC(c2ccccc2Cl)=NO1 (centres undefined),0.0,-23,0.7%,-0.4%,7%,-0.3,2
CC(=O)Nc1ccc(-c2ccnc3c2CC(C)(C(=O)NCc2ccc(N4CCN(C)CC4)cc2)O3)cc1 (centres undefined),x,x,-0.4%,4.6%,x,-0.4,x
COc1ccc(C(O)Cn2c(=N)n(CCCN(C)C)c3ccccc32)cc1 (centres undefined),-2.5,13,4.1%,0.7%,0%,0.0,-2
CCCC(=O)Nc1nnc(SCC)s1,1.5,24,-0.4%,2.8%,2%,-0.3,-2
CC1=NN(c2ccccc2)C(=O)/C1=C\C=C1/N(C)c2ccccc2C1(C)C,u,-14,5.0%,x,-18%,28,6
Cc1ccn2c(=O)nc(SCC(=O)N3CCCC3)nc2c1,x,2,0.9%,-19%,x,0.8,-22
CCOc1cccc(C2c3c(oc4ccc(F)cc4c3=O)C(=O)N2CCOC)c1 (centres undefined),x,1,0.8%,0.1%,x,-0.3,x
COc1ccc(CCNC(=O)c2cnc3ccccn3c2=O)cc1,3.0,0,-0.4%,-4.5%,12%,-0.3,-1
COc1cccc(CNC(=O)CN2C(=O)CSc3ccc(S(=O)(=O)N4CCCC4)cc32)c1,-5.5,-23&-13,-0.1%&0.0%,1.3%&-0.7%,7%,1.5&1.3,3
COc1cccc(CN2CCN(C(=O)c3cccc4ccccc34)CC2)c1,1.1,-24,0.5%,-1.5%,-13%,0.8,8
CC(C)C#Cc1cnc2c(c1)C(=O)N([C@H](C)CO)C[C@@H](C)[C@H](CN(C)C(=O)Nc1ccccc1F)O2,x,15,0.2%,-0.2%,x,-0.8,x
COc1cc(NC(=O)C2CCCN(c3ncnc4c3nc3n4CCCCC3)C2)cc(OC)c1OC (centres undefined),2.4,-1,2.5%,x,9%,1.6,1
COc1ccc(-c2ncnc(C(F)(F)F)c2-c2csc(C)n2)c(O)c1,1.6,24,-0.8%,0.8%,10%,1.1,3
Nc1ccc(Br)cc1Br,-0.9,-7,2.4%,1.0%,20%,-0.6,u
Cc1ccc(Cl)c(OCC(=O)NCc2ccco2)c1,0.1,3,15%[38.3 µM],1.2%,u,0.1,-4
COc1ccc(N2C(=O)C(CC(N)=O)N(NC(=O)CCc3ccccc3)C2=O)cc1 (centres undefined),0.4,27,3.8%,2.2%,14%,-0.4,14
COc1cc(C#Cc2c(-c3cncn3C)n(C)c3ccc(Br)cc23)cc(OC)c1,x,13,-1.1%,3.8%,x,0.1,x
CCCOc1ccc(-c2csc(N)n2)cc1[N+](=O)[O-],1.4,20,3.1%,u,-9%,2.7,1
COc1ccc(Cl)cc1NC(=O)C(C)Sc1nnc(C2CC2)n1C1CC1 (centres undefined),x,10,-0.7%,-0.5%,x,3.0,-4
CN1CCN(c2ccc(CNS(=O)(=O)c3ccccc3)cc2)CC1,5.5,4,-1.5%,x,24%,1.0,-10
C=CCNC(=O)c1onc(CSc2ccccc2)c1C(=O)NCC=C,x,4,0.9%,-2.9%,x,1.5,x
COc1ccc(NC(=O)CN2C(=O)C(C)SC(C)C2=O)c(OC)c1 (centres undefined),3.3,-6,-0.9%,0.1%,-2%,-0.7,-6
O=C1Cc2ccccc2C(=O)N1Cc1ccccc1,1.7,10,-0.4%,-2.0%,17%,-0.6,2
O=C(CCCC(=O)n1cnc2ccccc21)n1cnc2ccccc21,-3.2,14,0.7%,-2.0%,-16%,-0.2,-4
COc1ccc2nc(C)cc(Nc3ccc(N4CCN(C)CC4)cc3)c2c1,-4.4,-11,-2.6%,3.0%,0%,-0.3,-2
Cc1cccc(OCCSc2nc(N)cc(N)n2)c1,1.4,x,0.2%,-5.9%,45µM*,x,7
CN(N=Cc1ccccc1)C(=S)Nc1ccccc1,x,-1,0.2%,-1.1%,x,-0.7,x
CCCn1c2ccccc2c2cnn(CC(=O)N(CC)CC)c(=O)c21,-7.2,x,-0.4%,u,0%,x,25
Cc1cc(/C=C2\SC(=O)NC2=O)c(C)n1-c1ccc(N(C)C)cc1,5.5,35,0.8%,u,17%,0.9,10
CC1(C)CC(=O)c2cc(OCC(=O)NCC3CCCO3)ccc2O1 (centres undefined),3.9,-2,2.1%[38.3 µM],11µM*,24%,0.5,-1
COCCNC(=O)c1cnn2c(C(F)F)cc(-c3ccc(C)cc3)nc12,-3.4,10,-0.5%,-28%,3%,4.1,3
O=C(CSc1ccccn1)Nc1ccc2ccccc2c1,4.4,x,x,x,-12%,x,-12
O=C(OCC(=O)N1CCN(C(=O)c2ccco2)CC1)c1cc(=O)c2ccccc2o1,-0.4,-16,-1.7%,5.0%,5%,1.0,25
CCc1nc2ccc(C(=O)NCCCN3CCCC3=O)cn2c1N(CCC(C)C)CCN(C)C,x,x,0.3%,-10%,x,-0.7,x
CC(C)(C)C(=O)NC(=S)NCc1ccccc1,6.9,-8,8.2%,-2.7%,22%,1.1,-11
NCCCCCNC(=O)c1nc[nH]c1C(=O)NCC(=O)OCc1ccccc1,x,-5,0.0%,-0.4%,x,-0.5,x
COc1ccc(C(=O)CSc2n[nH]c(=O)[nH]c2=O)cc1,4.9,22,-0.9%,0.7%,0%,0.8,8
Cc1ccc(-n2nnnc2CNC(=O)C2CC(=O)N(c3ccccc3)C2)cc1C (centres undefined),-4.9,8&3,-1.0%&-0.7%,-0.3%&-1.2%,10%,0.1&-0.4,0
Cc1ccc(C2=CSC3=NS(=O)(=O)CCN23)cc1C,-1.6,-21,0.2%,1.6%,5%,-0.3,11
CN(C)C(CNS(=O)(=O)c1ccc(Br)cc1)c1cccnc1 (centres undefined),-1.6,7,-3.8%,0.3%,5%,-0.6,-20
Cc1ccc(Sc2c(C)nn(C(=O)C3CC3)c2C)cc1,0.6,35,u,-2.3%,-11%,2.0,7
CC(C)(C)NCC1(CO)SC(N)=NC1=O (centres undefined),5.1,6,7.6%,0.0%,-14%,-0.5,24
CC(C)NS(=O)(=O)c1ccc(CCC(=O)N2CCCC2)cc1,4.0,-19,-0.9%,x,5%,0.6,-17
CC(C)OCCCNCc1cccs1,3.0,39,-1.6%,-0.1%,16%,0.0,5
Nc1cc(N)nc(SCc2ccccc2Cl)n1,x,-5,2.0%,0.7%,x,-0.3,x
CC(=O)OC[C@@H]1CN(Cc2ccccc2)C[C@H](n2cnc3c(NC(C)C)ncnc32)O1,x,x,-0.2%,-0.4%,x,-0.6,x
CN(C)c1ccc(-c2cc([C@H]3[C@@H]4C=CCC[C@@]4(C)C(=O)N3Cc3ccccc3)ccc2F)cc1,6.0,-4,11%,3.9%,-8%,3.8,4

# The list goes on:
molecule,Menin-MLL FL inh,TRPML1 inh,PINK1 modulator,ClpP mod,Sfp PPTase inh,TRPML1 agonist,TRPV1 PAM
CCOC(=O)C1=NS(=O)(=O)NC(C)=C1,x,-17,1.4%,u,x,0.1,x
CCN(CC)CCCNC(=O)C1c2cc(OC)c(OC)cc2C(=O)N(C)C1c1cccnc1 (centres undefined),-0.3,5,-0.5%,-5.8%,2%,-0.7,13
O=C(c1cnc(N2CCN(c3ccccn3)CC2)c2ccccc12)N1CCN(c2cccc(Cl)c2)CC1,11,-10,-0.7%,x,3%,2.5,u
O=S1(=O)CC2N=C(N(Cc3c(F)cccc3Cl)c3ccccc3F)SC2C1 (centres undefined),7.8,-9,-1.4%,-1.0%,-1%,0.0,-8
COc1cc2c(cc1NC(=O)c1cccc(Br)c1)CCCC2,1.4,-13,-0.8%,-1.0%,-13%,-0.1,9
CCCCc1nnc(NC(=O)C(C)Sc2nc(C)cc(=O)[nH]2)s1 (centres undefined),4.5,-7,2.2%[38.3 µM],-0.2%,16%,0.5,-4
C#CC[N+](C)(C)CCCCCCCCCC,0.9,16,4.9%,-8.6%,14%,1.1,-2

# Screening data (PubChem)
